HIV Env fusion: blocks HIV Env-driven cell-cell fusion; HeLa-JRFL Env/CEM21 cell fusion, luciferase; inhibition, % at 12.3 µM; 360,000 compounds, 1.1% hits; AID 651610;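 active = mean replicate inhibition score of at least 50 and every replicate individually at or above 50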;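 also: 0% = plate neutral controls and 100% = maraviroc near 300 nM; one replicate is shown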
MT1-MMP act inh: blocks activation of human MT1-MMP. P50281. HT1080 RFP-PRO-GFP cells, GFP/RFP ratio fluorescence, overnight; percent of plate control window, DMSO zero. GFP/RFP ratio change, % at 20 µM. 360,000 compounds, 0.061% hits;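 active = GFP/RFP ratio change of at least 30% with cell ATP level not reduced by more than half and red fluorescence within 50% of control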; also: strong numbers were not always called active
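Material: RFP-PRO-GFP reporter HT1080 cells. Dosing: single-point 20 µM compound, 1% DMSO. Controls: DMSO and RFP-L50D-GFP cell wells. Timing: cells overnight before dosing, compound overnight, 37 °C, 5% CO2. Measure: GFP/RFP fluorescence ratio.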
CSC inhib: blocks cancer stem cells | inhibition, % at 7.5 µM | cancer stem cell-like cells viability, luminescence | 300,000 compounds, 1.1% hits;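 active = mean at 75% or more and at least half the replicates too; tested in HMLE shEcad cells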;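 also: 0% = median of negative and 100% = median of positive control wells; the first replicate is given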
eIF4H FP inh: inhibitors of RNA binding by human eIF4H | Q15056 | eIF4H fluorescence polarization binding assay | inhibition, % at 35 µM | 290,000 compounds, 0.94% hits | AID 2012;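 active = 50% or more with normal probe brightness, or confirmed in later tests; about a fifth of its hits are not listed in these tables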;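 also: calls also rest on retests at 20 µM and on dose response follow-up; 0% = protein and probe with vehicle and 100% = probe without protein; strong numbers were not always called active; many hits fall short of the cut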
Yeast UUG start: modulators of start codon recognition fidelity in yeast | S. cerevisiae UUG-firefly luciferase reporter, luminescence/redox ratio | activity score, % at 18.7 µM | 350,000 compounds, 0.13% hits;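 active = replicate mean at a twofold rise or more, about +100% in these data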;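 also: firefly luciferase made from a UUG start codon reports start codon fidelity; reporter light over untreated wells divided by growth signal over untreated wells; some hits fall short of that in this replicate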
PABP polyA inh: PABP-poly(A) binding inhibition; P11940; PABP-poly(A) RNA binding, fluorescence polarization; inhibition, % at 35 µM; 290,000 compounds, 1% hits; AID 2014;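 active = 50% or more with normal probe brightness, or confirmed in later tests; about a fifth of its hits are not listed in these tables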;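 also: calls also rest on retests at 20 µM and on dose response follow-up; controls were probe without protein and protein plus probe with vehicle; some compounds called inactive have numbers as strong as hits; many hits fall short of the cut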
Target sequence (P11940 whole entry, looked up): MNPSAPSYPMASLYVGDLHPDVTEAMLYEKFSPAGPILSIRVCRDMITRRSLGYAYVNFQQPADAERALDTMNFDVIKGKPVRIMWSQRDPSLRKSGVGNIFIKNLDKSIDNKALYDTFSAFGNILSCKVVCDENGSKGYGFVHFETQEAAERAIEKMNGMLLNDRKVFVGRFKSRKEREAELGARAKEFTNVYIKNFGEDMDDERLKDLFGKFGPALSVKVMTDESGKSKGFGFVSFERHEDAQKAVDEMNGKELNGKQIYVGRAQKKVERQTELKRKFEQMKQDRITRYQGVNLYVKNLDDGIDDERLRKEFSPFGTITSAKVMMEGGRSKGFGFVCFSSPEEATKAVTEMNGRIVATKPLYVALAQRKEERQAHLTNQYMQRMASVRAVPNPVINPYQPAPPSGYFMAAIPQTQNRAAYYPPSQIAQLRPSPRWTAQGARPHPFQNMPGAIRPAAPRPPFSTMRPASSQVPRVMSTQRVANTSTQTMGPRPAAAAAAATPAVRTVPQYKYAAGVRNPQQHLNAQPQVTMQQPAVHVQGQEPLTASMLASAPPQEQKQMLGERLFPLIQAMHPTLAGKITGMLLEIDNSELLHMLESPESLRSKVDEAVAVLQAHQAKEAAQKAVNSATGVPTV
Rce1 inh: yeast Ras-converting enzyme inhibition | Q03530 | yeast membranes, quenched prenylated peptide cleavage fluorescence | calls only | 290,000 compounds, 0.27% hits | AID 2563;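 active = fall in fluorescence gain of 50% or more versus controls, with final raw signal at or below 3038400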;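 also: plate controls were neutral control wells for no effect and wells lacking membranes for full effect; tested at 10 µM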
Target sequence (Q03530 whole entry, looked up): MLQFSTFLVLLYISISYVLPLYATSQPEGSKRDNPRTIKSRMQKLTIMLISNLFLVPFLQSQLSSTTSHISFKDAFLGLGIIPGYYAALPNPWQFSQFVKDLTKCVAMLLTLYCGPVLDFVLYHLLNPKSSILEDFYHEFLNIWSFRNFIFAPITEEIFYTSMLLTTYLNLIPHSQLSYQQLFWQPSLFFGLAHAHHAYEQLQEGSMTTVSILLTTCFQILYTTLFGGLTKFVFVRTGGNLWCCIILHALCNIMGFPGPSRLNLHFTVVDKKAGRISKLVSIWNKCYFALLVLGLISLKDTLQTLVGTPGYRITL
eIF4H FP inh retest: further read-out of eIF4H FP inh, marked with its call; inhibition, %; compound at 20 µM; confirmation average;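 mean of two retest wells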
PABP polyA inh retest: second read-out of PABP polyA inh, no call of its own (marks repeat the call); inhibition, %; compound at 20 µM; confirmation repeats;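 mean of two retest wells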
MT1-MMP act inh RFP: also measured in MT1-MMP act inh; calls as there; RFP signal change, %; measured here: RFP expression control read;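 0 = vehicle wells; hits needed this value within 50% of zero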
Active calls of the source: *; i = inactive; / = no result given.

SMILES	HIV Env fusion	MT1-MMP act inh	MT1-MMP act inh RFP	CSC inhib	eIF4H FP inh	Yeast UUG start	PABP polyA inh	Rce1 inh	others
Cc1ccc(NC(=O)Nc2cnccn2)cc1C	-98.9	0.7	1.4	5.7	-4.7	-4.5	-7.0	i
O=c1oc(-c2ccccc2)nc2sc3c(c12)CCC3	-30.3	-3.5	-0.3	6.5	92.2	-13.2	-2.0	i	eIF4H FP inh retest=-7.3;PABP polyA inh retest=13.3
Cc1ccc(-c2nnn(CC(=O)O)n2)cc1	-8.2	-4.8	1.9	/	6.4	-1.4	14.3	i
COc1ccc(N2CCN(CCCNC(=S)Nc3c(C)cccc3C)CC2)cc1	7.4	-0.3	-0.1	18.0	6.6	-28.7	-6.6	i
CCc1nnc(NC(=O)CSc2nnc(C3CCCCC3)n2-c2cccc(Cl)c2)s1	-288.3	-8.4	-3.8	51.7	-5.9	6.0	-1.9	i
COc1ccc(OCC(=O)NCc2ccc(Cl)cc2)cc1	11.6	-4.1	2.5	-7.2	0.6	4.2	6.4	i
CC(Nc1cccc([N+](=O)[O-])c1)C(=O)Nc1ccc(S(=O)(=O)N2CCCC2)cc1 (centres undefined)	23.4	5.6	-1.1	/	/	2.4	/	/
CCOC(=O)c1c(-c2cccs2)csc1NC(=O)c1ccco1	-6.9	0.0	-5.3	-11.8	6.8	-0.8	-4.4	i
CCOC(=O)c1cc(-c2ccccc2C)n(CC2CC(c3cccc([N+](=O)[O-])c3)=NO2)n1 (centres undefined)	33.0	0.9	-7.1	53.7	/	-15.7	/	/
CCc1ccccc1NC(=O)C1CCN(c2cnccn2)CC1	10.3	2.9	2.8	-2.2	-20.9	-18.5	7.3	i
O=C(Nc1ccc(S(=O)(=O)Nc2nccs2)cc1)c1ccc(=O)[nH]c1	5.0	-26.2	6.7	-5.6	73.3	/	28.2*	i	eIF4H FP inh retest=11.9;PABP polyA inh retest=62.4*
CCOC(=O)c1ccc(NC(=S)Nc2cccc(N)n2)cc1	-43.7	-1.9	-7.7	24.5	1.6	-19.9	5.6	i
COc1ccc(C(=O)Nc2ccc3ccccc3n2)cc1OC	-42.4	1.4	3.9	-6.9	0.1	-15.8	2.2	i
O=C(O)c1cc(S(=O)(=O)Nc2ccccc2Cc2ccccc2)ccc1Cl	1.5	1.1	5.0	/	-8.0	-6.4	6.2	i
Cc1ccccc1N1CCN(C(=O)NCc2cccc(Cl)c2)CC1	10.9	1.8	2.3	-4.8	4.3	-14.4	0.0	i
Cc1ccc2c(c1)[C@H]1[C@H](CO2)[C@H](c2ccccc2)[C@]2(C)C(=O)N(Cc3ccc(Cl)cc3)CC(=O)N12	65.3*	-3.1	-4.8	41.7	/	-4.9	/	/
CCC(Oc1cc(Cl)ccc1Cl)C(=O)N1CCCN(C)CC1 (centres undefined)	-16.1	-1.9	2.6	2.1	3.7	-15.8	-8.0	i
O=C(O)c1ccc(SCc2ccccc2)nc1	-6.8	-1.5	-2.4	3.8	/	-14.8	/	i
Cn1nnnc1N=N/C(=N/Nc1ccccc1)c1ccccc1	26.5	9.3	0.9	70.1	4.8	-25.0	2.6	i
Cc1ccc(N2CC(C(=O)Nc3nnc(SCCC4OCCO4)s3)CC2=O)cc1 (centres undefined)	0.4	5.8	4.1	-1.5	-5.8	13.5	5.5	i
COc1ccc(NC(=O)CN(c2cccc(F)c2)S(C)(=O)=O)cc1OC	/	3.3	-1.6	-10.5	0.7	-13.1	17.6	i
CN(CC(=O)Nc1ccc(S(=O)(=O)N2CCCC2)cc1)Cc1c(F)cccc1Cl	19.4	-6.7	-19.8	23.4	-1.2	-8.1	13.6	i
Cc1cccc(N2CCC(NCc3c(C(=O)N4CCCCC4)nc4c(C)cccn34)CC2)c1	-1.8	-14.4	-0.3	-9.4	22.6	/	10.2	i
COc1ccc(OCc2nnc(SCC(=O)N3c4ccccc4Sc4ccc(Cl)cc43)o2)cc1	26.4	23.6	-9.9	-12.5	-10.1	-20.8	-16.0	i
CCC1CCCCN1CC(=O)c1c(C)[nH]c2ccccc12 (centres undefined)	/	-2.1	1.5	-6.7	0.3	-0.9	1.2	i
Cc1ccc(Cn2c(=S)[nH]c3ccc(N4CCOCC4)cc3c2=O)o1	-55.8	6.7	2.5	/	72.4*	/	54.1*	i
O=C1c2cc(Cl)ccc2OC2(CCNCC2)C12CC(c1ccccc1)=NO2 (centres undefined)	0.4	-1.0	3.4	10.1	-15.7	-9.1	-4.5	i
CCOC(=O)C1(Cc2ccccc2)CCN(CC2CC=CCC2)CC1 (centres undefined)	-0.3	3.6	-0.8	-11.4	-7.6	/	0.9	/
Cc1nc(C(=O)Nc2ccc(Cl)cc2Cl)nn1-c1cc(OC(C)C)c(Cl)cc1Cl	-103.1	-5.8	-7.3	11.4	4.0	-5.0	-11.8	i
NC(=O)C1(N2CCCCC2)CCN(c2nc(-c3ccccc3)cs2)CC1	/	2.4	-13.3	-5.3	12.7	-5.4	1.2	i

The list goes on; it opens with the four that closed the last part.
SMILES	HIV Env fusion	MT1-MMP act inh	MT1-MMP act inh RFP	CSC inhib	eIF4H FP inh	Yeast UUG start	PABP polyA inh	Rce1 inh	others
O=C1c2cc(Cl)ccc2OC2(CCNCC2)C12CC(c1ccccc1)=NO2 (centres undefined)	0.4	-1.0	3.4	10.1	-15.7	-9.1	-4.5	i
CCOC(=O)C1(Cc2ccccc2)CCN(CC2CC=CCC2)CC1 (centres undefined)	-0.3	3.6	-0.8	-11.4	-7.6	/	0.9	/
Cc1nc(C(=O)Nc2ccc(Cl)cc2Cl)nn1-c1cc(OC(C)C)c(Cl)cc1Cl	-103.1	-5.8	-7.3	11.4	4.0	-5.0	-11.8	i
NC(=O)C1(N2CCCCC2)CCN(c2nc(-c3ccccc3)cs2)CC1	/	2.4	-13.3	-5.3	12.7	-5.4	1.2	i
COc1ccccc1-c1cc(C(=O)N2CCCc3ccccc32)no1	-19.0	-2.8	-2.8	-2.5	6.2	/	-10.9	i
Cc1cc(C)n2c(SCC(=O)N(CCC#N)c3ccc4c(c3)OCCO4)nnc2n1	-29.7	4.6	6.9	/	/	-1.5	/	/
O=C(Nc1ccncc1)C1CCN(S(=O)(=O)c2ccccc2)CC1	0.3	1.7	-1.0	-12.0	/	-5.2	/	i
CC(C)c1ccc(N2CC(C)(C)C2=O)cc1	-5.8	-0.3	-3.6	8.1	2.8	-4.5	5.4	i
O=C(NCc1ccc(F)cc1)C1CCCN1S(=O)(=O)c1ccccc1C(F)(F)F (centres undefined)	-5.9	1.0	-0.5	/	/	-20.3	/	/
O=C(CSc1nnnn1Cc1ccccc1)Nc1ccc2c(c1)OCCO2	/	3.7	-1.6	-0.7	-11.6	4.0	-3.8	i
O=C(CCCC(=O)N(CC(=O)NC1CCCCC1)Cc1ccco1)Nc1ccccn1	/	1.2	-1.8	-20.1	5.6	/	5.2	i
Cc1ccc2nc(/N=C(\N)NC(=O)NC3CCCCC3)nc(C)c2c1	-5.7	-2.7	-13.3	63.2	-2.7	-3.9	-12.6	i
CCOC(=O)C1=C(CC)OC(N)=C(C#N)C1c1cc(OC)ccc1OC (centres undefined)	-47.2	-10.5	-4.3	-4.2	-4.6	-9.8	-7.1	i
CCC(=O)Nc1ccc(N2CCC(C)CC2)cc1	-112.6	6.7	5.5	-3.5	-3.1	-20.2	2.0	i
COc1cccc(/C=N/NC(=O)c2ccc(OCc3cccc(Br)c3)cc2)c1	-59.3	1.5	1.6	41.9	-14.7	-2.7	-0.8	i
CC(=O)/C(=N\Nc1ccc(Cl)cc1)Sc1nnc(-c2ccccc2)n1-c1ccccc1	/	5.7	-5.5	-24.6	3.2	/	1.6	i
NS(=O)(=O)c1ccc(N/N=C/c2ccccn2)c([N+](=O)[O-])c1	-0.3	6.3	-1.9	-10.8	-10.4	/	-3.1	i
O=C(O)c1ccccc1C1c2ccccc2Oc2ccccc21	-6.5	-6.8	-1.7	/	/	-9.6	/	/
COc1cccc2sc(Nc3nc(-c4ccccn4)cs3)nc12	/	4.4	-4.2	/	13.4	-33.0	2.2	i

2 records picked at random from the list so far:
SMILES	HIV Env fusion	MT1-MMP act inh	MT1-MMP act inh RFP	CSC inhib	eIF4H FP inh	Yeast UUG start	PABP polyA inh	Rce1 inh	others
CC(C)c1ccc(N2CC(C)(C)C2=O)cc1	-5.8	-0.3	-3.6	8.1	2.8	-4.5	5.4	i
O=C(CCCC(=O)N(CC(=O)NC1CCCCC1)Cc1ccco1)Nc1ccccn1	/	1.2	-1.8	-20.1	5.6	/	5.2	i

Among those listed so far, 2 have a thiophene ring, fused or not.
SMILES	HIV Env fusion	MT1-MMP act inh	MT1-MMP act inh RFP	CSC inhib	eIF4H FP inh	Yeast UUG start	PABP polyA inh	Rce1 inh	others
O=c1oc(-c2ccccc2)nc2sc3c(c12)CCC3	-30.3	-3.5	-0.3	6.5	92.2	-13.2	-2.0	i	eIF4H FP inh retest=-7.3;PABP polyA inh retest=13.3
CCOC(=O)c1c(-c2cccs2)csc1NC(=O)c1ccco1	-6.9	0.0	-5.3	-11.8	6.8	-0.8	-4.4	i

Following part
SMILES	HIV Env fusion	MT1-MMP act inh	MT1-MMP act inh RFP	CSC inhib	eIF4H FP inh	Yeast UUG start	PABP polyA inh	Rce1 inh	others
COc1ccc(S(=O)(=O)NC2CC(=O)N(c3ccc(C)c(C)c3)C2)cc1 (centres undefined)	-4.1	-0.1	-3.1	29.0	/	/	/	i
COC(=O)c1ccc(Cn2nnc3c(=O)[nH]c(C4CCCN(S(=O)(=O)c5ccccc5)C4)nc32)cc1 (centres undefined)	-1.3	-1.5	2.5	-7.7	-6.1	-18.0	1.0	i
O=S(=O)(Nc1ccc(OC(F)F)cc1)c1ccc(-c2ccon2)s1	14.4	-2.1	0.0	-1.0	5.3	-14.8	11.6	i
N#Cc1ccc(S(=O)(=O)N2CCCCC2c2cc(C(=O)N3CCOCC3)no2)cc1 (centres undefined)	-14.0	-0.1	4.1	/	/	-5.0	/	/
O=C(NC1CCCCC1)C(c1ccc(Cl)cc1)N1CCC2(CC1)OCCO2 (centres undefined)	-118.7	-6.6	3.0	-3.4	-8.2	-7.3	0.7	i
CC1CC(OC(=O)CN2CCCCC2)CC(C)(C)C1 (centres undefined)	/	/	/	-12.2	3.4	/	-4.6	i
CN(Cc1ccccc1NS(=O)(=O)c1ccc(Cl)cc1)C1CCCCC1	18.7	-2.4	-4.4	1.0	-4.9	-0.9	-7.4	i
Cc1cccc(NC(=O)c2ccc(OCC3CCCO3)cc2)c1C (centres undefined)	-4.0	0.3	0.5	-0.2	-13.5	/	-12.9	i
C/C(N)=C(/C#N)C(=O)COC(=O)c1ccc(NC(N)=O)cc1	5.8	-4.3	-1.7	-9.0	7.1	-9.8	5.1	i
COc1ccc(CCNC(=O)CCOc2cc(C)ccc2C)cc1OC	13.0	7.5	-1.7	-27.0	0.3	-8.0	-0.4	i
CCCOc1ccc(C2NC(=O)NC2=O)cc1 (centres undefined)	/	1.1	8.8	-4.8	2.9	-2.4	-5.4	i
CCN(CC)C(=O)C(Sc1nnnn1-c1ccc(O)cc1)c1ccccc1 (centres undefined)	-5.2	-1.8	2.2	-8.5	5.5	2.7	5.4	i
O=c1cnnc(N/N=C/c2ccc3c(c2)OCO3)[nH]1	55.2*	11.8	6.9	-12.2	-2.4	-17.0	3.6	i
COc1ccc(NC(=O)COc2ccc(/C=N/n3c(C)nnc3C)cc2OC)cc1	/	1.1	1.9	/	6.6	-14.9	-1.3	i
COC(=O)[C@H]1C[C@@]2(O)CN(S(=O)(=O)c3ccc(C)cc3)C[C@@]2(OC(=O)NCc2ccc(OC)c(OC)c2)C[C@H]1C(=O)OC	-85.7	2.4	3.0	/	/	16.5	/	/
CSc1ccccc1C(=O)Nc1ccc(S(=O)(=O)NC2=NCCCCC2)cc1	/	0.9	-0.3	-16.1	/	0.6	/	/
